# TRPML1 blocker = qHTS for Inhibitors of the Human Mucolipin Transient Receptor Potential 1 (TRPML1). Mucolipin-1 (Homo sapiens), Q9GZU1. TRPML1-inducible cells, Ca2+ dye fluorescence, FDSS; hits give low values; inhibition of EC80 agonist-evoked calcium signal. activity change, negative = inhibition, % (concentration not given with the values). 390,000 compounds, 0.02% hits. AID 624415, 2012; in the data active means activity change below about -50%; inconclusive means about -30% to -50%; inactive means above about -30%;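 note: stimulus is agonist 54-4 at its EC80 concentration; % is set by controls: 0 for no effect and ±100 for the full control effect; the text of the record puts the active cut at -80%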
#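 TRPML1-DL cells, Tet-induced overnight (~16 h, 37 °C) at 1,500 cells/well, were loaded with Ca8 no-wash dye plus quencher for 45-90 min at room temperature. Compounds were pinned during FDSS kinetic reading; agonist 54-4 at EC80 (4 uM final) then added.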
# TRPML1 agonist = qHTS for Agonists of the Human Mucolipin Transient Receptor Potential 1 (TRPML1); Mucolipin-1 (Homo sapiens), Q9GZU1; TRPML1-expressing cells, Ca2+ dye fluorescence, FDSS; host cell line not named in the record; reference of the full effect not given here; activation, % (concentration not given with the values); 410,000 compounds, 0.12% hits; in the data active = activation above about 50%; inconclusive = about 30% to 50%; inactive = below about 30%; note: 0% is about no effect; the text of the record puts the active cut at 80%
#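 Agonist activity was taken from a 110 s kinetic Ca2+ dye read on the FDSS after pinning compounds onto TRPML1-DL cells. The cells were seeded at 1,500/well with Tet inducer, incubated about 16 h, then dye-loaded at room temperature.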
# Six1-Eya2 inh = qHTS Assay for Inhibitors of the Six1/Eya2 Interaction. Homeobox protein SIX1 (Homo sapiens) + Protein phosphatase EYA2 (Homo sapiens), …. AlphaScreen GST-Six1/His-Eya2 binding, biochemical; hits give low values; control for the full effect not named in the record. activity change, % (test concentration not listed). 360,000 compounds, 0.56% hits; in the data active = activity change below about -65%; inconclusive = about -30% to -65%; inactive = above about -30%; note: % is set by controls: 0 for no effect and ±100 for the full control effect
#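 Compounds are tested against tagged Six1 and Eya2 proteins bridged by glutathione donor and nickel acceptor beads; after a one-hour incubation at 37 °C without light, AlphaScreen emission is recorded.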
# TRPV1 PAM = HTS Assay for Compounds that Act as Potentiators of the Vanilloid Receptor 1. Transient receptor potential cation channel subfamily V member 1 (Homo sapiens), Q8NER1. TRPV1-expressing cells, Fluo-8 calcium influx, capsaicin EC20 potentiation; host cell line not named in the record; control for the full effect not named in the record. potentiation, % at 8.33 µM. 320,000 compounds, 0.02% hits. AID 540277, 2011; active means potentiation above 80%; inconclusive means 30% to 80%; inactive means below 30%; note: 0% is about no effect
# Target sequence (Q8NER1 whole entry, looked up): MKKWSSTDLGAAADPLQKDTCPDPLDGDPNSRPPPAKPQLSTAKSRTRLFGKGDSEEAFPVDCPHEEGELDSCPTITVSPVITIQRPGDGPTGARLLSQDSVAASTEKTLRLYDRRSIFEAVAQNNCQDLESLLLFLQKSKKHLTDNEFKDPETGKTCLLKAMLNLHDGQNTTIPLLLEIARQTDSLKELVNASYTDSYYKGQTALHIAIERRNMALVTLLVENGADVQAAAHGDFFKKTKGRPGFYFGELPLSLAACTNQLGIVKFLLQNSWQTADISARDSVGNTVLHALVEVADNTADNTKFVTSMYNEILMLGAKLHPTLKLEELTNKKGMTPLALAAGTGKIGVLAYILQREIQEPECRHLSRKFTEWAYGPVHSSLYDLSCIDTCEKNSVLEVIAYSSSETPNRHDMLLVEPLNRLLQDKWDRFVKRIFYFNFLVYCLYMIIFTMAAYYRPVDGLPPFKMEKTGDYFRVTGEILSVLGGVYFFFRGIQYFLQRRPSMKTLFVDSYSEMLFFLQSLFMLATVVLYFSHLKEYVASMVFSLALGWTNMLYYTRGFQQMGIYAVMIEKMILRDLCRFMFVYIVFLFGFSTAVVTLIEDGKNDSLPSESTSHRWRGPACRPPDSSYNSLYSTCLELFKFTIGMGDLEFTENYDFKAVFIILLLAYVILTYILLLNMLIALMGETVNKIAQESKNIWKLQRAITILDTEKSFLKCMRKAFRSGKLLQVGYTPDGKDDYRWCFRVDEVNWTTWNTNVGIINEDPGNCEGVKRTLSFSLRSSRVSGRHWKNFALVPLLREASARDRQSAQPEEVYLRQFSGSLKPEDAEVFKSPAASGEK
#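 TRPV1-expressing cells were cultured overnight at 35.5C and loaded with Fluo-8 calcium dye for 40 to 90 min at room temperature. After a 10 s baseline, compound was added and calcium influx was read kinetically for 3 min (ex 480/em 520 nm).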
# CtBP-E1A blk = qHTS Assay for Inhibitors of the CtBP/E1A Interaction; AlphaScreen GST-E1A/His-CtBP binding, 1536-well; hits give low values; control for the full effect not named in the record; activity change, % (no concentration beside the values); 340,000 compounds, 0.49% hits; in the data active means activity change below about -65%; inconclusive means about -30% to -65%; inactive means above about -30%; note: % is set by controls: 0 for no effect and ±100 for the full control effect
#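 GST-E1A and His-tagged CtBP (125 nM each as 5X stock) were preincubated with pin-transferred compound for 2 h at 37 °C in the dark, then glutathione donor and nickel acceptor beads were added for 1 h before AlphaScreen reading.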
# D2 PAM = Beta-Arrestin HTS for Positive Allosteric Modulators of the Human D2 Dopamine Receptor: Potentiators; DiscoveRx D2 beta-arrestin cells, luminescence, 90 min; 100% = 57 uM dopamine signal; D(2) dopamine receptor (Homo sapiens), P14416; 360,000 compounds, 0.23% hits; potentiation, % (concentration not given with the values); active = potentiation of 50% or more; inconclusive = 30% to 50%; inactive = 30% or less;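 note: tested on top of an EC20 dose of dopamine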
#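 PathHunter beta-arrestin assay in DiscoveRx D2 cells. Compounds were added with an EC20 of dopamine (50 nM final) for 90 min at 37 deg C. Luminescence was read 1 h after detection reagent, with 57 uM dopamine as the EC100 control.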
# Numbers without * were called inactive; ? = inconclusive; · = not tested or not shown.
SMILES,TRPML1 blocker,TRPML1 agonist,Six1-Eya2 inh,TRPV1 PAM,CtBP-E1A blk,D2 PAM
O=C1CC(c2ccccc2)n2nc(NS(=O)(=O)c3ccccc3)nc2N1 (stereo not drawn),-7,-0.9,-3,-14,1,15
COc1cccc(CNc2cc(C)ccn2)c1O,-4,-0.8,-3,1,-1,-10
CC(C)(C)C(=O)Nc1nnc(SCc2cccc(F)c2)s1,-28,0.5,1,-20,11,-2
O=S(=O)(c1ccccc1)c1nnn2c1nc(NC1CCN(Cc3ccccc3)CC1)c1cc(Cl)ccc12,36,-0.6,-15,6,-9,-55
O=C(NCCSc1ccccc1)c1cncc(Br)c1,9,-0.1,5,-16,5,-9
CCCCc1nc2n[nH]c(N)c2c2c1CSC(C)(C)C2,-7,0.5,-4,-5,1,-13
COc1ccc(CCC(=O)N2CCN(S(=O)(=O)c3cccc(C(F)(F)F)c3)CC2)cc1OC,5,-0.1,0,-39,-13,-1
O=C1NCCCCC1NS(=O)(=O)c1ccc(Cl)cc1 (stereo not drawn),9,-0.3,0,12,·,-4
COc1cccc(CC(=O)N2CCC(n3nccc3NC(=O)C3CCOC3)CC2)c1 (stereo not drawn),16,0.6,-11,0,-4,-1
COC(=O)Cc1ccc(OCC(=O)NC2CCCC2)cc1,9,-0.9,1,1,0,13
NC(CO)c1cn([C@@H](CCC(=O)O)C(=O)N2CCNCC2)nn1 (stereo partly drawn),36,-0.7,1,-4,1,-11
COc1ccc(C(=O)NNC(=O)CSc2nnnn2-c2cc(OC)cc(OC)c2)cc1,0,1.6,14,?,0,1
CC(=O)N1CCN(C(=S)c2ccc(Cl)cc2)CC1,11,-0.1,2,0,10,-13
Cc1cccc2c3c([nH]c12)C(=O)CC(C)(C)S3,3,-1.4,1,4,11,-2
CCOC(=O)C1CCCN(c2c(NCCCN3CCCC(C)C3)c(=O)c2=O)C1 (stereo not drawn),-26,-0.1,11,7,-24,-10
CC(C)C(=O)NCCn1ccc2ccccc21,9,1.0,3,-8,2,5
CCOC(=O)c1ccccc1OCc1cc(/C=N/NC(=O)c2cccnc2)ccc1OC,13,-0.1,-15,15,-5,-18
CCOc1ccc(OCCSc2nnnn2C2CCCCC2)cc1,-13,0.6,8,-28,22,16
Cc1ccc(S(=O)(=O)N2C[C@H]3C(=O)C[C@@H](c4cccs4)N(S(=O)(=O)c4ccc(C)cc4)[C@H]3C[C@H]2c2ccccc2)cc1,-23,2.0,0,·,-9,-8
CN1CCN(CCC(=O)Nc2cccc(Br)c2)CC1,0,-0.5,-3,-6,3,-11
CN1CCC(=NNC(=O)C(=O)NC(C)(C)C)CC1,32,0.1,-5,-3,11,-6
Cc1cc(C(F)(F)F)c(C#N)c(SCC(=O)Nc2nc3cc(Br)ccc3s2)n1,-26,4.0,-2,-34,-3,-5
Cc1c(-c2ccccc2)n[nH]c1C(=O)NN,-4,-0.7,-13,9,-8,-1
Cc1cc(/C=N/NC(N)=O)c(C)c(CO)c1,-5,0.4,9,2,6,-1
O=C1CCCC(=NCc2ccco2)C1,-1,1.5,3,-14,0,4
Brc1ccc(-c2ccc(/C=N/Nc3nc(N4CCOCC4)nc(N4CCOCC4)n3)o2)cc1,-11,-0.4,4,3,5,-3
CC1(C(=O)Nc2ccc3c(c2)OCO3)Cc2c(-c3ccc4c(c3)OCO4)ccnc2O1 (stereo not drawn),·,-0.6,-2,·,1,-12
COc1ccc(S(=O)(=O)N2CCCC(C(F)(F)F)C2)cc1 (stereo not drawn),14,0.7,-5,12,·,-1
Cn1c2ccccc2c(=O)c2ccc(C#Cc3ccc(N)cc3)cc21,4,0.2,12,13,8,-3
CC(C)Oc1cccc(C(=O)O)c1,9,-0.8,3,?,6,2
O=C(Nc1nc2nccc(-c3ccccc3)n2n1)c1ccc(F)cc1,-12,0.3,2,1,-12,27
CCOc1ccccc1/C=C/c1onc(C)c1S(=O)(=O)N1CCC(C(=O)NC(C)(C)C)CC1,0,1.7,-8,7,·,-1
CN(C)CCN(C(=O)c1cccs1)c1nc2cc3c(cc2s1)OCCO3,5,-0.3,0,1,12,-27
Cc1nn(C(C)C(=O)NC(C)CCc2ccccc2)c(=O)c2cc3occc3n12 (stereo not drawn),-8,-0.4,0,-9,-4,-17
Cc1ccc(/C=C/S(=O)(=O)NCCC(=O)NCc2ccc(F)cc2)cc1,18,-0.5,-1,2,·,4
COc1ccc(NS(=O)(=O)c2ccc(C)c(C(=O)NCCCN3CCCC3=O)c2)cc1,-3,1.8,2,0,7,-24
O=C(Nc1cccc(C(=O)N2CCOCC2)c1)C1CCCC1,29,-0.6,2,·,4,·
COc1ccc(OC)c(NC(=O)c2ccc(OC3CSC3)cc2)c1,22,-0.7,-27,-3,-12,-22
O=C(C=C(C(=O)c1ccccc1)c1ccccc1)c1ccccc1,19,3.1,-6,·,-11,-3
Cc1cc(C)n(CC(=O)NNC(=O)COc2ccc(Cl)cc2Cl)n1,-3,-0.2,-1,4,·,11
O=C(Nc1cccc(NC(=O)c2ccccc2Cl)c1)c1ccc([N+](=O)[O-])o1,-19,2.4,-11,?,-16,12
O=[N+]([O-])c1cccc(CN2CCN(Cc3ccco3)CC2)c1,19,0.9,-12,1,-11,-26
CCN(c1ccccc1)S(=O)(=O)c1c(C)noc1C,11,1.1,6,-24,-19,-4
COC(=O)c1ccc(Cn2c(C)c(C(=O)NCc3ccc(Cl)c(Cl)c3)sc2=O)o1,·,-0.5,?,·,?,0
COc1cc(NC(=O)CN2CCN(c3ccccc3F)CC2)c(C)cc1[N+](=O)[O-],-29,0.2,-11,7,-21,-6
Cc1ccccc1CN1C[C@@H]2C[C@@H](c3cn(C)nc3-c3ccccc3)N3CCC[C@@]23C1=O,32,1.9,-13,-1,-11,-2
COc1ccccc1NS(=O)(=O)c1ccc(C)c(C(=O)NCC(c2ccco2)N(C)C)c1 (stereo not drawn),1,0.7,1,5,-6,-28
CN(C(=O)C(C)(C)C)[C@H]1C[C@H]2c3[nH]c4ccccc4c3CCN2C(=O)[C@H]1CO,2,-0.4,2,·,-15,0
COC(=O)c1ccccc1Nc1ccnc(Cl)n1,0,0.4,0,·,-3,-12
O=C(NN=C(Cc1ccccc1)Cc1ccccc1)c1ccncc1,1,-0.9,7,-29,·,-17
CCNc1nc2c(c(=O)[nH]c(=O)n2C)n1Cc1ccc(F)cc1,-12,-0.5,1,20,1,-3
CCOc1ccc(NC(N)=O)cc1,8,0.1,3,-19,5,-4
COCCn1c2nc(=O)n(-c3ccccc3)c(=O)c-2nc2ccccc21,-9,59*,0,·,-1,-6
O=C(NC(=S)Nc1ccc(N2CCCCC2)c(Cl)c1)c1ccc2c(c1)OCCO2,5,0.8,-26,-4,-11,-7
CCC(C)(C)C1CCc2[nH]nc(C(=O)O)c2C1 (stereo not drawn),11,0.5,1,25,-6,-7
Cc1cc(C)n(C(C)CC(=O)N2CCc3ccccc32)n1 (stereo not drawn),-2,3.8,5,2,·,-1
CC(C)COP(=O)(OCC(C)C)C(O)c1ccc(F)cc1 (stereo not drawn),7,1.1,1,-5,-1,-7
O=C1NC[C@@H](CCCCN2CCN(CCc3ccccc3)C(=O)C2=O)N(CCc2ccc(O)cc2)C1=O,·,-0.3,-19,·,-11,·
CC(C)CCn1c(NCCN(C)C)nc2c1c(=O)[nH]c(=O)n2C,-8,-0.3,4,-4,3,-31
Cc1ccc(S(=O)(=O)N2CCC(C(=O)N3CCC[C@H]3C(=O)NCC(C)C)CC2)cc1,4,-0.5,3,-2,1,-10

# Some of these compounds in order of their number in D2 PAM, ascending:
SMILES	TRPML1 blocker	Six1-Eya2 inh	CtBP-E1A blk	D2 PAM
O=C(NN=C(Cc1ccccc1)Cc1ccccc1)c1ccncc1	1	7	·	-17
O=C(NC(=S)Nc1ccc(N2CCCCC2)c(Cl)c1)c1ccc2c(c1)OCCO2	5	-26	-11	-7
CCNc1nc2c(c(=O)[nH]c(=O)n2C)n1Cc1ccc(F)cc1	-12	1	1	-3

# (listing goes on)
SMILES,TRPML1 blocker,TRPML1 agonist,Six1-Eya2 inh,TRPV1 PAM,CtBP-E1A blk,D2 PAM
Cc1csc2nc(COC(=O)c3ccc(Cl)c([N+](=O)[O-])c3)cc(=O)n12,5,-0.1,1,-1,1,-8
CN(C)CCCN(C(=O)c1cc(-c2cccs2)nc2ccccc12)c1nc2ccc(F)cc2s1,53,-0.1,?,5,?,-35
CC(=O)O[C@H]1CC[C@@]2(C)C(=CC[C@H]3[C@@H]4CC[C@H](C5(C)OCCO5)[C@@]4(C)CC[C@@H]32)C1,15,-0.2,2,?,·,0
Clc1ccc(-c2nn3c(-c4ccccc4)nnc3s2)cc1,0,1.0,-9,0,-9,2
Cc1ccccc1C(=O)O/N=C(\N)c1cccc([N+](=O)[O-])c1,-15,2.9,-4,-15,-7,?
O/N=C/c1cccnc1Sc1ccccc1,-4,2.7,1,1,·,-4
Cc1ccc(C)c(-n2cc(-c3ccc(Cl)cc3)nc2SCC(=O)NC2CCS(=O)(=O)C2)c1 (stereo not drawn),-9,2.1,-17,0,-12,-8
O=C(CCCn1c(=O)oc2ccccc21)NNC(=O)COc1ccc(F)cc1,-7,0.8,-2,·,0,-2
COc1cc2c(cc1OC)C(=O)CCS2,6,-0.1,-1,-12,4,2
O=C(CCC1CCCC1)NCCS(=O)(=O)N1CCN(c2ccccc2)CC1,-6,-0.2,2,-9,-2,-33
O=C(CN1C(=O)NC2(CCCC2)C1=O)NNC(=O)c1ccccc1,3,-1.1,4,-2,8,-10
O=C(NNC(=O)c1sc2ccccc2c1Cl)Nc1ccc(Cl)cc1,64,-0.3,-2,·,8,-29
COc1ccc(OC)c(C2c3[nH]c4ccccc4c3C[C@H]3C(=O)N(CCCOC(C)C)CC(=O)N23)c1 (stereo partly drawn),4,0.6,-1,18,·,-11
O=C(CNC(=O)c1ccccc1)NCCCSc1ccccc1,7,-0.4,4,·,0,-3

# 4 compounds already listed, sorted by number of heavy atoms, ascending.
SMILES,TRPML1 blocker,TRPML1 agonist,Six1-Eya2 inh,TRPV1 PAM,CtBP-E1A blk,D2 PAM
COc1cc2c(cc1OC)C(=O)CCS2,6,-0.1,-1,-12,4,2
O=C(CN1C(=O)NC2(CCCC2)C1=O)NNC(=O)c1ccccc1,3,-1.1,4,-2,8,-10
Cc1csc2nc(COC(=O)c3ccc(Cl)c([N+](=O)[O-])c3)cc(=O)n12,5,-0.1,1,-1,1,-8
CN(C)CCCN(C(=O)c1cc(-c2cccs2)nc2ccccc12)c1nc2ccc(F)cc2s1,53,-0.1,?,5,?,-35

# High-throughput results: PubChem, National Center for Advancing Translational Sciences (NCATS)
